Screens: PubChem BioAssay, several laboratories
ALR inh = human ALR oxidase inhibition via reduced H2O2; purified ALR, DTT oxidation, H2O2 HRP-luminol luminescence; actives 3.8% (n = 290,000); inhibition, % (concentration not given with the values); P55789;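 active = mean and each replicate at 75% or more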;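 also: stock transfer was 7.5 nL into about 7.5 µL; 0% = neutral wells and 100% = wells with inactivated enzyme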
Target sequence (P55789 whole entry, looked up): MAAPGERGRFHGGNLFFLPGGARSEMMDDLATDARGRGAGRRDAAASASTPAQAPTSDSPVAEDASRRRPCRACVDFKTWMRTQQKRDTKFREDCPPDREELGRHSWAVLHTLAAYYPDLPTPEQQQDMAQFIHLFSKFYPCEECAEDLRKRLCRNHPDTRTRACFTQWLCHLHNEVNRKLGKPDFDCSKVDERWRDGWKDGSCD
HNF4A DNA FP = change in binding of human HNF4 alpha to DNA. HNF4a-FITC DNA binding, fluorescence polarization, 1 h. actives 0.3% (n = 360,000). P41235. AID 1224865. activity change, % at 10 µM; in the data active = activity change above about 30%, passing the limit was not always enough;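 also: controls were the assay level and a saturating level of protein; the project sought stronger binding though the title names inhibitors; some compounds called inactive have numbers as strong as hits; positive values seem to mean higher polarization but the record does not say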
UCH37 inh = human UCH37 deubiquitinating enzyme inhibition. purified proteasome/UCH37, Ub-AMC cleavage fluorescence. inhibition, % (no concentration beside the values). actives 0.33% (n = 330,000);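 active = mean of two replicates above 20%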;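 also: 0% = compound-free wells with enzyme and 100% = wells lacking proteasome; stock transfer was 100 nL into about 20 µL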
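Schedule: 30 min plus 25 min, room temperature / Material: human UCH37 within purified proteasomes / Technique: AMC fluorescence intensity at 355/460 nm / Buffer or medium: pH 7.4 Tris-HCl (50 mM) with ovalbumin, ATP-MgCl2, DTT / Controls: wells without proteasome as full block, compound-free enzyme plus substrate as uninhibited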
Ecoli growth = blocks Escherichia coli growth | OD600, 23 h; stronger effect = lower value | OD600 absorbance (concentration not given with the values) | actives 0.21% (n = 330,000) | AID 1053175;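 active = OD600 absorbance below the run mean of sample wells minus 3.6 SD, in any replicate, cut at about 0.56 in these data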;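 also: stock transfer was 300 nL into about 60 µL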
Beta2AR agonist = activates human beta-2 adrenergic receptor causing internalization; P07550; Am2.2-beta2AR cells, FAP receptor internalization, flow cytometry; reference of the scale not given here; response, % (concentration not given with the values); actives 0.43% (n = 340,000);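 active = response above a set limit, near 3 SD of response in nonfluorescent compounds, cut at about 42% in these data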;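 also: stock transfer was 100 nL into about 11 µL; a reference agonist was the positive control; negative values mostly stem from fluorescent compounds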
Target sequence (P07550 whole entry, looked up): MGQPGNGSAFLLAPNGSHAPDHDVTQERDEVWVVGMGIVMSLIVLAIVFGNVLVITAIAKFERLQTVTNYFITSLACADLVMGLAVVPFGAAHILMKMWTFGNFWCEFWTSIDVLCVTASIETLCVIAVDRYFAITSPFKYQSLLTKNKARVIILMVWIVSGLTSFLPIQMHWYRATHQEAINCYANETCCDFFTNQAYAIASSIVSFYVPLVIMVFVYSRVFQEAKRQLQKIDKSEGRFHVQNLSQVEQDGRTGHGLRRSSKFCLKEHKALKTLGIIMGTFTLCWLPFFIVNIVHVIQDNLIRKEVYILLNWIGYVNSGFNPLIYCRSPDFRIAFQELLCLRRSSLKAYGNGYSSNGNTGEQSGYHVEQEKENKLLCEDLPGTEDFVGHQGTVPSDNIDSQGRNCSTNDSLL
FGF22 binding = binders of recombinant human FGF22 by thermal shift; SYPRO orange fluorescence; percent of sucrose octasulfate shift, DMSO zero; actives 1.5% (n = 340,000); calls only at 9.99 µM; AID 651658; Q9HCT0;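 active = melting point raised past a set limit in the mean and every replicate; three in four hits are not shown here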
Target sequence (Q9HCT0 whole entry, looked up): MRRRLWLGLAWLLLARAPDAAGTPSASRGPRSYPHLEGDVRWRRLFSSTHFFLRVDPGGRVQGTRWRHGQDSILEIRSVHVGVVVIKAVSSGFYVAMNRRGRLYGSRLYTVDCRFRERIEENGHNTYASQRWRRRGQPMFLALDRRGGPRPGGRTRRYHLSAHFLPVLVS
LANA-H2A inh = blocks KSHV LANA binding to histone H2A/H2B | Q9QR71 | cell-free LANA-H2A/H2B peptide, fluorescence polarization | inhibition, % (test concentration not listed) | actives 0.6% (n = 320,000) | AID 2629; in the data active = inhibition mostly above about 10%, no sharp cut-off; inactive = mostly below about 6.7%;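 also: stock transfer was 7.5 nL into about 10 µL; 0% = median of vehicle wells and 100% = median of positive control wells; one replicate is shown; the record names a cut of 25% in any replicate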
* hit, by the source's call; i = inactive; nt = not tested or not shown. Only part of the results is shown. The share of hits here may be higher or lower than overall.

ALR inh	Structure	HNF4A DNA FP	UCH37 inh	Ecoli growth	Beta2AR agonist	FGF22 binding	LANA-H2A inh
-5	CCOc1ccc(-n2cccc2C=O)cc1	-1.2	1.6	0.69	-5	nt	-0.7
-4	Cc1ccc(S(=O)(=O)NC2CCCCCCC2)cc1	-0.3	3.1	0.73	-1	i	-1.0
2	C[C@@H]1C=C(C(=O)NCc2ccccc2)O[C@H](OCc2ccc(CO)cc2)C1	-2.2	4.1	nt	-3	i	-3.5
3	CN1C(=O)C(CC(=O)Nc2ccc(F)cc2)N(NC(=O)c2cccc(F)c2)C1=S (centres undefined)	1.9	3.6	0.64	-3	i	-6.4
-5	COc1ccccc1N(C)S(=O)(=O)c1ccc(C(=O)OCC(=O)NCCC2=CCCCC2)cc1	2.2	7.3	0.68	0	i	2.0
-4	COc1ccccc1CNC(=O)CCNC(=O)Cn1cnc2ccccc2c1=O	-3.3	-1.1	0.72	2	nt	-1.5
nt	CCOc1ncccc1C(=O)OCC(=O)Nc1ccc(S(=O)(=O)N2CCCC2)cc1	-1.2	2.2	0.69	7	i	-2.3
81*	CCOc1ccc2nc(NC(=O)CS(=O)(=O)c3ccc(C)cc3)sc2c1	4.5	2.1	0.62	12	nt	3.4
51	O=C(CN1CCOc2ccccc21)NCc1ccco1	0.5	2.6	0.72	0	i	1.2
-5	CC(C(=O)N(C)CC(=O)Nc1ccccc1C(F)(F)F)N1C(=O)c2ccccc2C1=O (centres undefined)	-1.3	2.4	0.69	0	i	-13
-1	CCN(CC)CCN(C(=O)/C=C/c1cccs1)c1nc2ccc(C)cc2s1	5.5	-30	0.68	32	i	-0.6
nt	Fc1ccccc1-c1nc2ccccc2[nH]1	0.9	-1.9	0.66	1	i	-3.2
-8	CCC(C)N1CC(=O)N2Cc3[nH]c4ccccc4c3C[C@H]2C1=O (some centres undefined)	-0.8	3.2	0.66	-2	i	0.6
40	CSCCOC(=O)C1=C(C)NC(=O)NC1c1ccc2c(c1)OCO2 (centres undefined)	4.8	-1.1	0.69	-2	i	-3.0
-14	CCn1nc(C)c(CN2CCC(C(=O)Nc3cccc(-c4cccc(Cl)c4)c3)CC2)c1C	1.9	7.4	0.67	12	i	0.5
1	CC1CCN(Cc2nnnn2CCCC(=O)N(C)C(C)c2ccccn2)CC1 (centres undefined)	-2.4	-0.3	0.62	2	i	2.5
-3	COc1ccc(N(CC(=O)NC2CCCC2)C(=O)c2ccc(N3CCCCC3)nc2)cc1	-0.8	1.3	0.72	-11	nt	2.2
-2	COc1ccc(/C=N/NC(=O)CSc2ccccc2)cc1OC	2.8	nt	nt	10	nt	-0.3
-14	O=C(Nc1ccccc1F)Nc1ccccc1Br	1.9	1.4	0.68	-2	i	-2.2
-3	CCOCCCN(C(=O)Cn1nnc(-c2ccc(OC)c(OC)c2)n1)C(C(=O)NCC1CCCO1)c1ccc(F)cc1 (centres undefined)	2.3	4.5	0.68	-10	i	1.4
-4	COc1ccc(-c2cc([C@H]3[C@H]4C=CC[C@@H](C)[C@@H]4C(=O)N3Cc3ccccc3)ccc2F)cc1OC	-0.4	0.8	nt	12	i	0.0
-1	COc1ccc(S(=O)(=O)NCCN2CCOCC2)c(C)c1C	-0.5	nt	nt	-4	i	0.6
-2	CCOc1cc(Br)c(CC(=O)O)cc1OCC	-3.0	-0.2	0.7	-5	i	-6.3
nt	COCCN(C(=O)c1ccc(N2C(=O)c3ccccc3C2=O)cc1)c1c(N)n(CC(C)C)c(=O)[nH]c1=O	-2.7	-0.6	0.65	-10	i	nt
32	Cc1ccc(-c2csc3ncnc(-n4cnc5ccccc54)c23)cc1	0.8	2.1	0.7	5	i	-0.1
nt	O=C(CN1CCCC1c1ccc2c(c1)OCCO2)NC(=O)Nc1ccccc1 (centres undefined)	0.7	4.1	0.68	4	i	-44
3	CCCc1nc2c([nH]1)c(=O)n(C)c(=O)n2C	0.1	1.8	0.67	0	i	6.4
0	CN(CC(=O)O/N=C(\N)c1cccc([N+](=O)[O-])c1)S(=O)(=O)c1ccccc1	-0.5	-1.1	0.67	1	nt	2.8
nt	Cn1c(NC(=O)c2cccc(C(F)(F)F)c2)cc(=O)n(C)c1=O	-0.4	2.5	0.75	1	i	2.3
1	O=C(/C=C/c1ccco1)Nc1ccc(Cl)c(S(=O)(=O)N2CCOCC2)c1	4.9	2.3	0.66	-1	i	-2.2

3 entries already listed, arranged by the number in ALR inh, lowest first:
mol | ALR inh
COc1ccc(-c2cc([C@H]3[C@H]4C=CC[C@@H](C)[C@@H]4C(=O)N3Cc3ccccc3)ccc2F)cc1OC | -4
O=C(/C=C/c1ccco1)Nc1ccc(Cl)c(S(=O)(=O)N2CCOCC2)c1 | 1
Cc1ccc(-c2csc3ncnc(-n4cnc5ccccc54)c23)cc1 | 32

Structures listed so far with bromine (two):
ALR inh	Structure	HNF4A DNA FP	UCH37 inh	Ecoli growth	Beta2AR agonist	FGF22 binding	LANA-H2A inh
-14	O=C(Nc1ccccc1F)Nc1ccccc1Br	1.9	1.4	0.68	-2	i	-2.2
-2	CCOc1cc(Br)c(CC(=O)O)cc1OCC	-3.0	-0.2	0.7	-5	i	-6.3

(next part)
ALR inh	Structure	HNF4A DNA FP	UCH37 inh	Ecoli growth	Beta2AR agonist	FGF22 binding	LANA-H2A inh
0	COCCCNC(=S)N1CCN(c2nc(-c3ccc(F)cc3)cs2)CC1	1.2	2.6	0.65	3	i	-2.3
18	CCCCCOC(=O)Nc1nnc(CCCCC)s1	1.7	0.9	0.63	6	i	-0.1
-11	COc1cccc(NC(=O)Nc2nnc(CC(=O)NCc3ccccc3)s2)c1	-4.7	0.9	0.64	2	i	3.4
63	Cc1ccc(C2Nc3ccccc3NC3=C2C(=O)CC(C)(C)C3)c(O)c1 (centres undefined)	-2.9	nt	nt	0	i	5.5
92*	N#Cc1ccc(CSc2nnc(NC(=O)c3ccc(=O)[nH]c3)s2)cc1	2.8	-8.1	0.67	-1	i	0.2
-1	Cc1ccc2c(Cl)c(C(=O)NCC(c3ccco3)N3CCCC3)sc2c1 (centres undefined)	-3.2	0.2	0.7	-7	i	1.8
-2	COc1cc(-c2nc3cc(C)ccn3c2NC2CCCCC2)ccc1-c1ccc(C(C)=O)cc1	14	-23	0.73	21	nt	-4.9
-42	Cc1onc(-c2ccccc2Cl)c1C(=O)OCC(=O)c1c(N)n(C)c(=O)n(C)c1=O	4.2	3.9	0.63	3	i	-2.3
nt	COc1ccc(Cc2noc(CN(C)Cc3ccc(-n4cccn4)cc3)n2)cc1OC	-0.7	2.3	0.69	-9	i	-5.3
40	CC(NC(=O)c1ccco1)C(=O)N1CCN(c2ccccc2)CC1 (centres undefined)	0.8	2.2	0.67	-2	i	0.8

Laid out differently: results already given.
ALR inh	HNF4A DNA FP	UCH37 inh	Ecoli growth	Beta2AR agonist	FGF22 binding	LANA-H2A inh	SMILES
-2	14	-23	0.73	21	nt	-4.9	COc1cc(-c2nc3cc(C)ccn3c2NC2CCCCC2)ccc1-c1ccc(C(C)=O)cc1
-42	4.2	3.9	0.63	3	i	-2.3	Cc1onc(-c2ccccc2Cl)c1C(=O)OCC(=O)c1c(N)n(C)c(=O)n(C)c1=O

The results go on:
ALR inh	Structure	HNF4A DNA FP	UCH37 inh	Ecoli growth	Beta2AR agonist	FGF22 binding	LANA-H2A inh
13	CC(=O)NN(O)C1N(C)C(=O)N(Cc2ccccc2)C1(C)C (centres undefined)	-1.2	1.4	0.69	0	i	1.9
1	Cc1c(C(=O)O)cccc1-n1c(C)cc(C=O)c1C	-6.0	4.7	0.71	14	i	1.8
-3	O=S(=O)(NCC1CCCO1)c1ccc(-c2ccc(Cl)cc2)cc1 (centres undefined)	-1.3	0.2	0.65	-2	i	-5.2
0	C=CC[C@@H](CC(=O)N[C@@H](CO)Cc1ccccc1)C(=O)NC[C@H](OC(=O)[C@@H](CC=C)Cc1ccc(F)cc1)c1ccccc1	-3.3	0.5	nt	5	i	-1.0
-7	Cc1ccc(NCCC(=O)c2ccc(Cl)cc2)cc1C	-3.0	-3.0	0.76	-4	nt	-4.8
9	Cc1ccc(CNC(=O)C(=O)NCC2OCCN2S(=O)(=O)c2ccc3c(c2)OCCO3)cc1 (centres undefined)	0.5	2.8	0.72	8	i	-2.5
-1	Clc1cccc(CSC2=NCCCN2)c1	nt	1.9	0.67	3	nt	2.6
1	CNC(=O)COC(=O)c1ccc(Cl)c(S(=O)(=O)N2CCCC2)c1	2.0	2.4	0.67	1	i	2.6
nt	COc1ccc(OC)c(NC(=S)N(CCc2c(C)[nH]c3ccccc23)Cc2cccs2)c1	-4.7	5.0	0.73	14	i	-3.0
-13	Cn1c(=O)n(C)c2cc(NC(=O)C(F)(F)F)ccc21	-0.1	0.1	0.69	3	nt	3.2
2	Cc1ccc(NC(=O)N2CCC(C(=O)c3ccc(F)cc3)CC2)cc1	1.3	-1.1	0.66	2	i	-2.5
-28	COc1cc(C(C)=O)ccc1OCCN1CCC(Cc2ccccc2)CC1	0.1	2.5	0.68	-3	i	-11
5	Cc1cccc(C)c1NC(=O)CN1C(=O)NC(C)(CCc2ccccc2)C1=O (centres undefined)	5.6	-0.6	0.66	-5	i	1.4
-9	COc1cc([C@@H]2C[C@H]3CN(c4ccccc4)C(=O)[C@]34CCCN24)cc(OC)c1OC	8.0	4.9	0.65	-3	i	-0.9
17	CCOc1c(Br)cc(C2NC(=O)CCC2[N+](=O)[O-])cc1OC (centres undefined)	0.8	0.7	0.67	-2	i	1.2
2	O=[N+]([O-])c1ccc(/C=C/c2ccc3cccc(O)c3n2)cc1	5.4	8.2	0.69	-3	i	1.3
6	O=c1c(Br)c(N2CCOCC2)cnn1-c1ccccc1	3.4	8.8	0.69	-4	i	-2.3
-1	CCCn1c(SCN2C(=O)c3ccccc3C2=O)nc2cc(Cl)ccc2c1=O	-3.5	1.6	0.72	-16	nt	1.2
nt	O=C(c1ccc(S(=O)(=O)Nc2cccc(C(F)(F)F)c2)cc1)N1CCN(c2ccccc2O)CC1	-2.6	-0.2	0.69	22	i	nt
4	O=C(OCCN1C(=O)c2ccccc2C1=O)c1cccs1	-1.7	3.5	0.67	2	nt	3.5
1	O=C(CCOc1ccccc1)Nc1ccnn1C1CCN(C(=O)CCC(F)(F)F)CC1	0.2	0.9	0.66	-2	i	-0.1
-1	Cc1onc(-c2ccccc2Cl)c1C(=O)N1C=CC(C(F)(F)Cl)=NCC1	0.2	5.6	0.69	3	nt	4.3
-10	CCN(CC)S(=O)(=O)c1cccc(-c2nnc(SCC(=O)NCCC3=CCCCC3)n2N)c1	3.0	5.2	0.75	2	nt	-0.9
-3	Nc1nccnc1C(=O)OCC(=O)Nc1ccc2[nH]c(=O)[nH]c2c1	0.8	-27	0.69	-3	i	3.8
1	COc1ccc(OC)c(NC(=O)COC(=O)c2ccc(OC)c(S(=O)(=O)N3CCOCC3)c2)c1	-2.6	-2.1	0.68	2	i	-40
-6	CCCCc1ccc(NC(=O)N[C@H](C(=O)O)C(C)CC)cc1 (some centres undefined)	-0.7	3.6	0.69	-6	nt	2.3
nt	O=C(O)c1ccc(NC(=S)Nc2ccc(S(=O)(=O)Nc3ccccn3)cc2)cc1	-2.0	1.3	0.68	-1	i	nt
8	Cc1nnc(NC(=O)c2sc3ccccc3c2Cl)s1	5.1	4.5	0.67	-7	nt	0.2
-9	COc1ccc(CC(=O)OCC(=O)NCC2CCCO2)cc1OC (centres undefined)	0.6	3.5	0.66	-5	i	-0.6
-1	COc1cc(Cl)c(C)cc1NC(=O)CSc1ccccc1	0.5	-0.2	0.68	0	i	0.8
4	N=c1oc2cc(O)ccc2cc1C(=O)Nc1ccc(F)cc1	20	-104	0.67	9	i	2.1
